Mtb hypoxia inh: inhibitors of hypoxia-regulated fluorescent reporter in Mycobacterium tuberculosis; fluorescence inhibition, % (no concentration beside the values); M. tuberculosis hypoxia-regulated fluorescent reporter, fluorescence; 300,000 tested, 0.1% active;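 active means 35 to 45% if threefold the growth effect, above 45% if 1.5-fold the growth effect; inactive means the rest, general growth blockers included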;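 further: wells of about 50 µL received 100 nL stock; 0% = vehicle wells and 100% = reference inhibitor wells; whole bacteria with a GFP reporter of the hypoxia response; strong numbers were not always called active; many hits fall short of the cut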
BJeLR lethal: kills HRASV12-expressing BJeLR cells | AID 1554 | inhibition, % (concentration not given with the values) | BJeLR (HRASV12) viability, CellTiter-Glo ATP luminescence, 48 h; reference of the scale not given here | 300,000 tested, 0.17% active;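 active means replicate mean above 50%; inconclusive means above 50% but judged a plate artefact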;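 further: 50 nL library stock added to about 25 µL; numbers are from one replicate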
PrP UTR inh: inhibition of PrP 5' UTR reporter expression | cell-based PrP 5' UTR mRNA reporter, plate reader | inhibition, % (test concentration not listed) | 340,000 tested, 0.35% active | AID 488862;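 active means every replicate at 50% or more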;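 further: 0 = median of the neutral control wells; tested in H4 reporter cells; numbers are from one replicate; inactives centre near -14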
RN4220 kill: S. aureus RN4220 growth inhibition. AID 1259311. OD600, 16 h. inhibition, % (no concentration beside the values). 330,000 tested, 0.33% active;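 active means z-score of -3 or lower and OD600 up to 0.18 on both plates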;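 further: plate controls were untreated cells for no effect and reference antibiotic for full effect; stock transfer was 100 nL into about 80 µL; one replicate is shown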
Sa ugtP lethal: kills S. aureus RN4220 lacking UgtP; S. aureus RN4220 ugtP deletion, OD600 growth, 16 h; some inactives read as strong as hits; growth inhibition, % (test concentration not listed); 330,000 tested, 0.54% active;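 active means z-score under -3 and OD600 up to 0.15 on both plates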;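 further: plate controls were untreated wells for no effect and antibiotic for full effect; wells of about 80 µL received 100 nL stock; the first replicate is given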
Autofluor counter: flagged as autofluorescent in microsphere protease counterscreen | compound autofluorescence counterscreen, microsphere flow cytometry; stronger effect = higher value | AID 624483 | fluorescence intensity (concentration not given with the values) | 360,000 tested, 3.1% active;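 active means at least 3 SD above the mean of all compounds, about 16000 in these data; inconclusive means too few beads counted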;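 further: 100 nL of 1 mM stock went into each well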
Mtb hypoxia inh growth: second read-out of Mtb hypoxia inh, no call of its own (marks repeat the call); growth inhibition, %; measured here: M. tuberculosis growth (absorbance);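 0% = vehicle and 100% = reference antibiotic; read after six days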
The depositor's hits bear a star; ? = inconclusive; nt = not tested or not shown; & = joins results of further samples.

SMILES | Mtb hypoxia inh | Mtb hypoxia inh growth | BJeLR lethal | PrP UTR inh | RN4220 kill | Sa ugtP lethal | Autofluor counter
Cc1ccccc1OCc1nnc(SCC(=O)NC2CCCCC2)o1 | 1 | -3 | -4 | -11 | 1.7 | 3 | 6286
COc1ccc2cc(C(=O)N3CCC(Cc4ccccc4)CC3)[nH]c2c1 | -11 | 3 | 5 | -18 | 1.0 | -11 | 3914
CCc1ccccc1Nc1nc(N)nc(CSc2nnnn2C)n1 | -2 | -4 | 1 | -1 | 6.1 | 6 | 4300
CC(=O)c1cccc(Nc2nc(-c3ccccc3)nc3ccccc23)c1 | 12 | 12 | -3 | 25 | -13 | 4 | 4341
CC(=O)CSc1nnc(-c2ccc3c(c2)OCO3)o1 | 6 | 1 | 1 | -15 | 3.6 | 5 | 6501
Cc1ccc2cc(C#N)c(SCC(=O)Nc3ccc4sc(C)nc4c3)nc2c1 | 1 | 4 | 1 | nt | 5.2 | 0 | nt
Cc1cccc(-n2c(SCC(=O)N3CCN(c4ccccn4)CC3)nnc2N2CCOCC2)c1 | 0 | 4 | nt | -3 | 9.7 | 6 | nt
O=C(CCc1c[nH]c2ccccc12)NN1C(=O)NC2(CCCCC2)C1=O | -5 | 3 | nt | 1 | 2.2 | 0 | 4008
CCN(CC(=O)NCc1cccs1)C(=O)c1ccc(-c2cccc(C(F)(F)F)c2)o1 | 3 | 3 | -3 | -3 | -5.5 | -4 | 5562
COc1ccc(NC(=O)NNC(=O)c2ccc3ccccc3c2O)c(OC)c1 | 10 | 4 | -4 | -24 | 11 | -8 | 5195
CSc1c(CC(=O)Nc2ccccc2)n(Cc2ccccc2)c2ccccc12 | 7 | 3 | -1 | -2 | 7.7 | 8 | 2118
CCC(C)NC(=O)c1ccccc1NC(=O)CN(c1cc(C)ccc1OC)S(C)(=O)=O (centres undefined) | 7 | 2 | -1 | -25 | 0.6 | -1 | 4678
CCn1cc(/C=N\NC(=O)COc2cccc(C)c2C)c(C)n1 | nt | nt | 9 | -7 | nt | nt | 2166
Cc1nn(-c2ccccc2)c(Cl)c1C=NNc1ccc(S(=O)(=O)Nc2ccccc2C(=O)O)cc1[N+](=O)[O-] | 7 | -4 | nt | nt | 55 | 74 | nt
CCc1ccc(N(CC(=O)NCc2ccc(F)cc2)C(=O)c2csnn2)cc1 | 8 | 5 | 0 | -16 | 2.2 | -2 | 4385
Cc1nn(Cc2c(Cl)cccc2Cl)c(C)c1NC(=O)/C=C/c1cnn(C)c1C | -7 | 8 | -13 | -32 | 4.3 | -1 | 9972
O=C(Nc1ccc(OC(F)(F)F)cc1)c1ccc2nc[nH]c2c1 | 10 | 3 | 3 | -25 | 2.0 | 1 | 3632
Cc1[nH]c2ccccc2c1/C=N/NC(=O)c1ccccc1 | nt | nt | -7 | -19 | nt | nt | 4134
O=C1CNC(=O)/C(=C\c2ccc(F)cc2)N1 | 0 | 2 | -1 | 12 | 3.2 | 2 | 3296
Nc1c(-c2ccccc2)c(CN2CCOCC2)nn1-c1ccc(C(=O)O)cc1 | -6 | 2 | -1 | -23 | 6.1 | 7 | 2382
COc1cccc(-n2c(O)c(C=Nc3c(C)n(C)n(-c4ccccc4)c3=O)c(=O)[nH]c2=O)c1 | nt | nt | 1 | -7 | nt | nt | 2214
O=C(NCCC1CCCCN1S(=O)(=O)c1ccccc1)C(=O)Nc1ccccc1 (centres undefined) | 9 | -1 | 9 | -2 | 3.4 | 5 | nt
COC(=O)C1=C(c2ccc(S(C)(=O)=O)cc2)CC2CCC1N2C(=O)NCCO (centres undefined) | -1 | 1 | nt | nt | 5.5 | -7 | nt
CN1CCN(C(=O)CN(c2cc(C(F)(F)F)ccc2Cl)S(C)(=O)=O)CC1 | 1 | -5 | -2 | -24 | 7.7 | -1 | 5183
CCCCN(CC)C(=O)c1oc2ccc(S(=O)(=O)N3CCCC3)cc2c1C | 13 | 4 | 2 | -31 | 3.1 | -3 | 5324

The results go on:
SMILES | Mtb hypoxia inh | Mtb hypoxia inh growth | BJeLR lethal | PrP UTR inh | RN4220 kill | Sa ugtP lethal | Autofluor counter
CCCS(=O)(=O)c1nc(S(=O)(=O)c2ccc(C)cc2)c(N2CCOCC2)s1 | 3 | 0 | 0 | -11 | 3.0 | 5 | 6045
CC(C)CC(c1nnnn1Cc1ccc2c(c1)OCO2)N1CCC(C(N)=O)CC1 (centres undefined) | 7 | 5 | -1 | -19 | 8.1 | 7 | 2470
O=C(NCC1CCCO1)c1ccc2c(c1)S(=O)(=O)c1ccccc1C2=O (centres undefined) | -9 | 11 | 0 | -10 | 10 | 5 | 3709
Cc1cc(C)cc(C(=O)N2CCN=C2c2ccccc2)c1 | 6 | 0 | 2 | -3 | 3.8 | 1 | 2046
CCOc1ccccc1/C=C/c1cc(C(=O)O)c2ccccc2n1 | 12 | 15 | -5 | -35 | -2.0 | 3 | 4339
O=C(CN1CCOCC1)N1c2ccccc2Sc2ccccc21 | 3 | 8 | 5 | -13 | 4.7 | 9 | 3621
O=C(NCCc1ccc(Cl)cc1)C1CCN(S(=O)(=O)N2CCCC2)CC1 | 5 | 2 | -6 | -14 | 1.3 | -3 | 8705
COc1ccc(Cn2nnc3c(C)n[nH]c(=O)c32)cc1 | 1 | 5 | -1 | -17 | 2.1 | 3 | 3213
Cn1nccc1NC(=O)Nc1cccc([N+](=O)[O-])c1 | 2 | 0 | -11 | -25 | 3.7 | 0 | 5587
COc1cccc(C=NNC(=O)c2cccc3ccccc23)c1OC | 13 | 11 | nt | nt | 1.6 | 10 | nt
Cc1ccc(C(=O)NCC(=O)Nc2ccc(S(=O)(=O)Nc3cc(C)nc(C)n3)cc2)cc1 | 13 | 4 | nt | -9 | 2.5 | 2 | 2918
CC1CC(C)(C)NC(=S)N1CCCC(=O)Nc1ccc(F)c(F)c1 (centres undefined) | 6 | 4 | -5 | -21 | -1.2 | 5 | 4584
CCOC(=O)C1=C(N)n2c(s/c(=C\c3cccnc3)c2=O)=C(C(=O)OC)C1c1cccnc1 (centres undefined) | nt | nt | -3 | 11 | nt | nt | 3167
O=C(CSc1ccc2ccccc2c1)Nc1ncccn1 | 11 | 4 | 5 | -20 | 6.8 | 8 | 3519
OC(COCC1COc2ccccc2O1)CN1CCN(c2ccccn2)CC1 (centres undefined) | 0 | 6 | 8 | -22&3 | 2.2&-0.9 | -1&3 | 3863&2392
O=C(O)c1ccccc1/C=N/NC(=S)NCc1ccccc1 | nt | nt | 0 | -19 | nt | nt | 4083
Oc1cccc(-c2nc3ccc4ccccc4c3c3c2CCC3)c1 | 7 | 1 | 1 | -88 | 61 | 100* | ?
Nc1ccc2nc(CCc3ccccc3)[nH]c2c1 | nt | nt | -12 | -18 | nt | nt | 1524
O=S(=O)(Nc1cccc(-n2cnnn2)c1)c1ccc(Cl)cc1 | -4 | -5 | -13 | -24 | 5.0 | 3 | 6027
CCC(Oc1ccccc1)C(=O)O/N=C(\N)c1ccc(OC)c(OC)c1 (centres undefined) | 12 | 1 | 5 | -18 | 0.8 | 20 | 1932
CC(=NNC(=O)C1CC1)c1ccc(OC(F)F)cc1 | 13 | 4 | nt | nt | 0.8 | 11 | nt
COc1cccc(-c2ncc3ccccc3c2COC(=O)N2CCOCC2)c1 | 5 | 2 | nt | -19 | -0.3 | -9 | 3532
O=C(CN1C(=O)/C(=C/c2ccccc2Cl)SC1=S)NC1C=CS(=O)(=O)C1 (centres undefined) | 2 | 11 | -3 | -5 | 4.7 | -2 | 5323
CCc1ccc(NC(=S)N(CCCN2CCOCC2)Cc2ccccn2)cc1 | nt | nt | 2 | -26 | nt | nt | 10236
O=C(Nc1ccccc1C(=O)N1CCOCC1)C1CCC(=O)N1C1CCCC1 (centres undefined) | 3 | 1 | -7 | -14 | 2.1 | 0 | 10778

Additional records follow:
SMILES | Mtb hypoxia inh | Mtb hypoxia inh growth | BJeLR lethal | PrP UTR inh | RN4220 kill | Sa ugtP lethal | Autofluor counter
Cc1ccc(C2C3=C(CCCC3=O)Nc3nc(SCC(=O)NCc4ccco4)[nH]c(=O)c32)cc1 (centres undefined) | -5 | 3 | -12 | -9 | 14 | 8 | 9784
COc1ccc(CCC(=O)OCC(=O)Nc2sccc2C(N)=O)cc1 | 5 | -5 | nt | -25 | 2.6 | 7 | 3111
CN(C(C(=O)OC(C)(C)C)c1ccccc1)S(=O)(=O)c1cccc(S(=O)(=O)N(C)C(C(=O)OC(C)(C)C)c2ccccc2)c1 (centres undefined) | 5 | 8 | nt | nt | 3.8 | 9 | nt
COc1ccc(OCC(=O)N/N=C(/C)Cc2ccccc2)cc1 | nt | nt | -2 | -36 | nt | nt | 2643
CC(OC(=O)c1ccc2ccccc2n1)C(=O)Nc1ccc(N2CCOCC2)cc1 (centres undefined) | nt | nt | 2 | -17 | 3.1 | 4 | 2671
COc1cccc(-n2c(C)n[nH]c2=O)c1 | 6 | 9 | -11 | -15 | 0.8 | -4 | 9000
CCOC(=O)N1CCC(NC(=O)c2cc(C(=O)Nc3ccc(OC)c(OC)c3)ccc2CO)CC1 | nt | nt | -1 | -8 | -2.3 | 2 | 4392
CCCCCOc1ccc(/C=c2\sc3nc(=O)c(-c4ccccc4)nn3c2=O)cc1OC | nt | nt | -3 | -16 | nt | nt | 2044
O=C(Nc1ccccc1C(F)(F)F)N1CCN(c2ccc3nnc(-c4ccc(F)cc4)n3n2)CC1 | 12 | -1 | -4 | -16 | -1.6 | -14 | 10256
CC(C)(C)c1ccc(C(=O)Nc2nnc(SCC(=O)NCC3CCCO3)s2)cc1 (centres undefined) | 3 | 5 | -6 | 44 | 5.0 | 8 | 5164
COc1cc2c(cc1OC)C(C(=O)NCCN(C)C)C(c1cccs1)N(C)C2=O (centres undefined) | -10 | -8 | -8 | -7 | 0.0 | 5 | 3089
COC(=O)c1onc(-c2c(C)cc(C)cc2C)c1C(=O)OC | 2 | -3 | 10 | 9 | 6.4 | 1 | 2454
COc1ccc2cc3cc(C(=O)Nc4cc(OC)c(OC)c(OC)c4)oc3nc2c1 | 4 | 22 | 4 | -17 | 4.8 | -15 | 4446
COc1ccc(C(CCN(Cc2ccc(OC)c(OC)c2)C(C)=O)c2ccccc2)cc1 (centres undefined) | 1 | 0 | 8 | 2 | -1.0 | 6 | 2285
O=S(=O)(NCc1cccnc1)c1ccc(Cl)s1 | -4 | -1 | -2 | -8 | 3.2 | -2 | 7149
Clc1nc(-c2cccnc2)nc2scc(-c3ccccc3)c12 | 2 | 15 | -25 | -17 | -7.8 | 7 | 2201
N#Cc1cc(Nc2c(N)nc[nH]c2=O)c([N+](=O)[O-])cc1C#N | 0 | -7 | -4 | 7 | 1.6 | 10 | 3015
CCCN1C2CCCC1CC(NC(=S)Nc1cc(C)ccc1C)C2 (centres undefined) | 4 | 9 | -7 | -19 | 7.0 | 9 | 9151
CC(C)(C)C(=O)OCc1nc(-c2ccc3c(c2)OCCO3)cs1 | 11 | -4 | 2 | -8 | 1.8 | 16 | 3730
Cc1cc(C)cc(NC(=O)c2cccn2-c2ncc(C(F)(F)F)cc2Cl)c1 | -8 | 14 | 17 | -27 | -8.9 | 20 | 25062*
CCCCN(C)C(=O)c1nc2ccccn2c1CN1CCN(C/C=C/c2ccccc2)CC1 | -6 | 0 | 6 | -15 | 1.1 | -3 | 2407
COc1ccc(OC)c(S(=O)(=O)N2CCC(C(=O)N3CCCCCC3)CC2)c1 | 8 | 8 | -4 | -10 | 1.7 | 6 | 4165
C=CC(C)(C)c1[nH]cnc1/C=C1\NC(=O)C(C(C)C)NC1=O (centres undefined) | nt | nt | 20 | -17 | 3.8 | 10 | 4103
O=c1[nH]c(C2CCN(S(=O)(=O)c3ccc(S(=O)(=O)NC4CC4)cc3)CC2)nc2c1nnn2Cc1ccc(F)cc1 | -7 | 4 | -1 | -18 | 0.1 | 15 | 5341

Sorted by formula weight (ascending): some entries from above.
SMILES | Mtb hypoxia inh | Mtb hypoxia inh growth | BJeLR lethal | PrP UTR inh | RN4220 kill | Sa ugtP lethal | Autofluor counter
O=S(=O)(NCc1cccnc1)c1ccc(Cl)s1 | -4 | -1 | -2 | -8 | 3.2 | -2 | 7149
COc1ccc(OC)c(S(=O)(=O)N2CCC(C(=O)N3CCCCCC3)CC2)c1 | 8 | 8 | -4 | -10 | 1.7 | 6 | 4165
CCCCCOc1ccc(/C=c2\sc3nc(=O)c(-c4ccccc4)nn3c2=O)cc1OC | nt | nt | -3 | -16 | nt | nt | 2044

Compound activity: PubChem BioAssay, several laboratories

Compounds as they come; 4% or so of the library scored in one or more.
